Compound activity: PubChem BioAssay, several laboratories
Beta cell apopt = blocks beta cell apoptosis; INS-1E cytokine-induced death, ATP luminescence, 48 h; percent of positive-control rescue, neutral wells zero; protection from apoptosis, % (concentration not given with the values); hit rate 0.8% among 300,000; AID 435005;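 active means all replicates at 75% or more, or half of them and the mean; inconclusive means half reach 75% but not the mean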;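 further: 0% = cytokine-treated negative control wells and 100% = positive control rescue; higher means more ATP so stronger rescue from cytokine killing; wells of about 40 µL received 100 nL stock; the first replicate is given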
UCH37 inh = human UCH37 deubiquitinating enzyme inhibition; inhibition, % (test concentration not listed); purified proteasome/UCH37, Ub-AMC cleavage fluorescence; Q9Y5K5; hit rate 0.33% among 330,000;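 active means mean of two replicates above 20%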;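 further: 0% = compound-free wells with enzyme and 100% = wells lacking proteasome; stock transfer was 100 nL into about 20 µL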
Target sequence (Q9Y5K5 whole entry, looked up): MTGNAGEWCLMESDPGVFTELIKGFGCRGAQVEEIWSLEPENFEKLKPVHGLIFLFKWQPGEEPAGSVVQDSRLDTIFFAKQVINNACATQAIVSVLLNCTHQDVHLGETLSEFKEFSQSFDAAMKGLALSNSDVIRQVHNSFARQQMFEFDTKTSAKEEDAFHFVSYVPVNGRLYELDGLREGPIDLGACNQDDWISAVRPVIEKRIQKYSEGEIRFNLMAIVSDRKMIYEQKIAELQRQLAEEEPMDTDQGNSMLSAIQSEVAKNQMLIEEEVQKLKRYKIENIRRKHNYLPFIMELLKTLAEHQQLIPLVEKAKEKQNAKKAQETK
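Material: human UCH37 enzyme supplied as purified proteasome complex. Measure: % inhibition of Ub-AMC cleavage fluorescence. Medium: pH 7.4 Tris-HCl (50 mM) with ovalbumin, ATP-MgCl2, DTT. Times: 30 min preincubation with enzyme, 25 min cleavage at room temperature. Detection: AMC fluorescence intensity at 355/460 nm.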
Ecoli rRNA inh = selective bacterial rRNA inhibition in E. coli. AID 720706. hit rate 1.6% among 350,000. E. coli WT GFP vs humanized-ribosome RFP mutants, fluorescence, 24 h; active compounds read low; DMSO median 0, no signal -100. GFP signal change (wild-type ribosome), % (test concentration not listed);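 active means significant combined selectivity score with lowered wild-type GFP, culture density cut under 30%, mutant RFP and density less affected; inactive means any of these conditions unmet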; further: one replicate is shown; some compounds called inactive have numbers as strong as hits
FGF22 binding = shifts melting point of recombinant human FGF22; calls only at 9.99 µM; AID 651658; hit rate 1.5% among 340,000; Q9HCT0; recombinant FGF22 thermal shift, SYPRO orange fluorescence; percent of sucrose octasulfate shift, DMSO zero;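 active means melting point raised past a set limit in the mean and every replicate; inconclusive means no clear call; three in four hits are not shown here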
E coli growth = E. coli growth inhibition; OD600 absorbance (concentration not given with the values); Escherichia coli growth, OD600, 23 h; active compounds read low; hit rate 0.21% among 330,000;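 active means OD600 absorbance below the run mean of sample wells minus 3.6 SD, in any replicate, cut at about 0.56 in these data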;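 further: stock transfer was 300 nL into about 60 µL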
AF4-AF9 inh = blocks AF4 peptide binding to human AF9. hit rate 0.47% among 350,000. AID 651704. P42568. inhibition, % at 10 µM. AlphaScreen, biotin-AF4 peptide binding to FLAG-AF9;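 active means every replicate reaching a set inhibition limit, whatever the replicate mean, cut at about 25% in these data; inconclusive means mean inhibition reaches that limit but some replicates miss it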;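 further: 0% = plate neutral control median and 100% = total signal loss; the record names both 10 and 1 µM as test concentration; the first replicate is given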
Target sequence (P42568 whole entry, looked up): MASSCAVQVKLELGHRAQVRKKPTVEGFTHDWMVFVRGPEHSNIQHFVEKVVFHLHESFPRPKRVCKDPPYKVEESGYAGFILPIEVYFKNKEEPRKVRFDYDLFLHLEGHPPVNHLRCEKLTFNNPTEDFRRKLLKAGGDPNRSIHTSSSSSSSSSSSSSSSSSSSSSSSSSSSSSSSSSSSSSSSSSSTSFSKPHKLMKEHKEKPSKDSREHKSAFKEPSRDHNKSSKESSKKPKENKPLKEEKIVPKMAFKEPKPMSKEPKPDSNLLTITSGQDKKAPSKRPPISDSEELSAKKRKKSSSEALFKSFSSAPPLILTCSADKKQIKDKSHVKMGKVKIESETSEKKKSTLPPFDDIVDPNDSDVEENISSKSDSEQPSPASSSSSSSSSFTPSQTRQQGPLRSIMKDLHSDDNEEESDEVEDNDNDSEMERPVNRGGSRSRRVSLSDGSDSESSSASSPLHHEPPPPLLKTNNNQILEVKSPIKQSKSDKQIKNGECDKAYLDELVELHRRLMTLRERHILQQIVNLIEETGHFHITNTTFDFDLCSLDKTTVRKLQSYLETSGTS
A1 inh = inhibitors of the anti-apoptotic protein A1, read as caspase activation; MEF A1-2A-BIM cells, Caspase-Glo 3/7 luminescence, 3 h; percent of clofoctol response, vehicle zero; caspase activation, % (no concentration beside the values); hit rate 0.066% among 330,000; AID 2462;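 active means over half of replicate activation scores above 10%, or exactly half above 10 with the replicate mean above 10; inconclusive means replicate mean below 10 yet half the replicates above 10; inactive means over half of replicates below 10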;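 further: wells of about 30 µL received 50 nL stock; many hits fall short of the cut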
T cruzi inh = T. cruzi replication inhibition; T. cruzi beta-gal in NIH3T3, luminescence, 90 h; inhibition, % (concentration not given with the values); hit rate 1.4% among 300,000;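 active means mean inhibition across valid replicates above about 55%, limit read from the data; inconclusive means mean below that limit but half or more replicates reach it; inactive means mean below it, under half of replicates reach it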;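 further: signal also drops with host cell toxicity which is not excluded here; 0% = plate median of DMSO wells and 100% = zero luminescence signal; higher percent means less beta-gal luminescence so fewer parasites; stock transfer was 50 nL into about 50 µL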
Ecoli rRNA inh OD600 = further read-out of Ecoli rRNA inh, marked with its call; OD600 change, %; measured here: OD600 growth;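 optical density of the mix in the first replicate; 0 = DMSO median and -100 = no signal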
Ecoli rRNA inh RFP = second read-out of Ecoli rRNA inh, no call of its own (marks repeat the call); RFP signal change, %; measured here: RFP humanized mutant strains;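 first replicate; 0 = DMSO median and -100 = no signal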
* hit, by the source's call; i = inactive; ? = inconclusive; . = not tested or not shown; & = joins results of further samples.

#1 COC(=O)c1ccccc1NC(=S)N(Cc1ccc2c(c1)OCO2)Cc1cc2cc(OC)ccc2[nH]c1=O
#2 O=[N+]([O-])c1ccccc1/C=N/NC1=NS(=O)(=O)c2ccccc21
#3 Cc1ccc(NC(=O)C(OC(=O)c2ccccc2Cl)c2ccccc2)cc1Cl (centres undefined)
#4 O=C(NCc1ccc(Cl)cc1)C1CCN(c2nnc(N3CCCC3=O)s2)CC1
#5 COc1ccc(NC(=O)Nc2ccc3c(c2)C(=O)N([C@H](C)CO)C[C@H](C)[C@@H](CN(C)C(=O)Nc2ccc4c(c2)OCO4)O3)cc1
#6 COc1cc(C(=O)NCC2CCCO2)ccc1OCc1ccccc1Cl (centres undefined)
#7 COC(=O)C1CCN(CC(=O)Nc2ccccc2Sc2ccccc2)CC1
#8 C=CCOc1c(Br)cc(/C=N/n2c(CC)n[nH]c2=S)cc1Br
entry no.	1	2	3	4	5	6	7	8
Beta cell apopt	26	-4	6	4	-7	4	-2	-1
UCH37 inh	-0.3	.	3.1	3.1	0.7	2.2	5.3	.
Ecoli rRNA inh	.	12	.	3	-1&19	-15	-56	0
Ecoli rRNA inh OD600	.	8	.	13	0&20	-16	-76	1
Ecoli rRNA inh RFP	.	2.3	.	-3.4	-2.8&12	1.1	-18	1.8
FGF22 binding	.	i	.	i	i	i	i	i
E coli growth	0.76	.	0.66	0.8	.	0.68	0.72	.
AF4-AF9 inh	.	-0.9	.	1.1	3.2&6.2	0.3	-3.1	1.3
A1 inh	?	-0.8	1.3	-0.4	-0.3	0.7	0.1	0.2
T cruzi inh	51	-27	22	-2	.	-6	29	-20

#9 COc1cccc(S(=O)(=O)NCc2ccc(C(=O)Nc3ccc(C)cc3)cc2)c1
#10 COc1ccc(N2C(=O)[C@H]3[C@@H](C2=O)C2c4ccccc4C=NN2[C@H]3C(=O)C(C)(C)C)cc1 (some centres undefined)
#11 COc1ccc(N(CCC#N)C(=O)/C(C#N)=C\c2cccs2)cc1
#12 CC(=O)Nc1nnc(CCS(=O)(=O)c2ccc(C)c(C)c2)s1
#13 CCOC(=O)c1c(NC(=O)Cc2cccs2)sc(C(=O)NC2CCCC2)c1C
#14 NS(=O)(=O)c1ccc(NC(=O)c2cc(Cl)ccc2Cl)cc1
#15 CCOc1ccc(NS(=O)(=O)c2ccc(C(=O)N3CCN(c4ncccn4)CC3)cc2)cc1
#16 CCn1nc(C)cc1C(=O)N1CCCC(C(=O)c2ccc3ccccc3c2)C1 (centres undefined)
entry no.	9	10	11	12	13	14	15	16
Beta cell apopt	-4	-1	-3	-5	8	2	11	-7
UCH37 inh	1.9	1.8	8.8	3.1	2.1	2.6	3.0	-14
Ecoli rRNA inh	.	-11	11	.	.	6	-23*	-20*
Ecoli rRNA inh OD600	.	-9	9	.	.	2	-7.9*	-14*
Ecoli rRNA inh RFP	.	-0.7	0.1	.	.	-5.4	2.8*	2.6*
FGF22 binding	.	i	i	i	.	i	i	i
E coli growth	0.78	0.62	0.67	0.7	0.69	0.66	0.72	0.62
AF4-AF9 inh	.	0.1	4.0	-2.1	.	-4.5	0.5	2.1
A1 inh	0.1	0.9	-0.3	0.5	-1.1	-0.4	0.1	0.2
T cruzi inh	12	7	1	-8	17	-26	8	3

#17 Cc1c(C#N)c2ncn(Cc3ccccn3)c(=O)c2n1-c1ccccc1
#18 CC(=O)c1ccc(NC(=S)NC(=O)/C=C/c2ccco2)cc1
#19 COc1ccc(CNC(=O)c2ccccc2[N+](=O)[O-])cc1
#20 COc1ccccc1-n1nc(C)cc1N
#21 Cn1c(NC(=O)c2ccc(F)cc2)c(-c2ccccn2)c(=O)c2ccccc21
#22 O=C(CN1C(=O)COc2ccc(S(=O)(=O)N3CCCCCC3)cc21)NCc1ccc(F)cc1
#23 CCOC(=O)C1(Cc2ccccc2C)CCCN(C(=O)CCc2cccnc2)C1 (centres undefined)
#24 COc1ccc(NC(=O)c2ccccn2)cc1
entry no.	17	18	19	20	21	22	23	24
Beta cell apopt	1	1	-1	-3	-1	7	2	18
UCH37 inh	-33	4.0	3.2	3.6	6.7	-1.4	3.8	5.9
Ecoli rRNA inh	.	-3	9	12	13	-21	-18	.
Ecoli rRNA inh OD600	.	2	1	9	6	-42	-28	.
Ecoli rRNA inh RFP	.	-1.5	-14	0.3	0.3	-9.6	-7.3	.
FGF22 binding	.	i	i	i	i	i	i	.
E coli growth	0.73	0.69	0.76	0.72	0.62	0.76	0.68	0.72
AF4-AF9 inh	.	-0.6	0.6	0.4	0.6	-2.7	-0.3	.
A1 inh	0.5	0.4	2.7	0.7	1.3	0.2	-1.6	-7.5
T cruzi inh	-6	-5	-10	3	-9	5	9	-6

#25 CCN1CCN(CCCN(Cc2ccco2)C(=S)Nc2ccc(Cl)c(C)c2)CC1
#26 CCn1c2ccccc2c2cc(NC(=S)N3CCOCC3)ccc21
#27 COc1ccc(CCNC(=O)CC(=O)NCCc2ccc(OC)cc2)cc1
#28 CN(C)C1=NCCN1CC1CCCC1
#29 COc1cc(OC)c(NC2=NCCCCC2)cc1Cl
#30 CC(=O)Nc1ccc(CN2CCN(Cc3ccc(C)cc3)C(CCO)C2)cc1 (centres undefined)
#31 O=C(COC(=O)CCNS(=O)(=O)c1ccccc1)NNC(=O)c1ccccc1
#32 C=CCn1c(SCC(=O)c2ccc(OC)cc2)nnc1C(C)NC(=O)c1cccs1 (centres undefined)
entry no.	25	26	27	28	29	30	31	32
Beta cell apopt	-11	-9	-1	-11	0	-7	-3	-2
UCH37 inh	1.7	1.8	0.9	-1.5	0.2	5.6	0.0	3.6
Ecoli rRNA inh	-5	.	-7	6	.	11	3	.
Ecoli rRNA inh OD600	-3	.	-5	4	.	1	2	.
Ecoli rRNA inh RFP	1.9	.	-4.0	0.8	.	-4.3	-1.4	.
FGF22 binding	i	.	i	i	.	i	i	.
E coli growth	0.62	0.7	0.66	0.68	0.69	0.68	0.69	0.65
AF4-AF9 inh	6.9	.	-0.2	-1.8	.	-8.7	-1.4	.
A1 inh	-0.6	0.1	-0.3	0.5	1.9	-0.8	0.0	0.7
T cruzi inh	-42	18	13	.	23	-1	-15	-10

#33 CCc1cccc(CC)c1NC(=O)C(NS(=O)(=O)c1cccs1)c1ccccc1 (centres undefined)
#34 CCOc1ccccc1NC(=S)Nc1ccc2cn[nH]c2c1
#35 NC1=NC2(CCCCC2)N=C(Nc2ccc(Br)cc2)N1
#36 CCCCn1c(NC(=O)C2CCCCC2)nc2ccccc21
#37 CCOc1ccc2nc(CN3CCN(Cc4ccccc4OCC)C(CCO)C3)ccc2c1 (centres undefined)
#38 COC(=O)c1nc(-c2ccccc2)n[nH]1
#39 CCOC(=O)C1CNc2cc(S(=O)(=O)CC)ccc2O1 (centres undefined)
#40 CC(C)(C)c1ccc(S(=O)(=O)Nc2cccc(C3OCCCO3)c2)cc1
entry no.	33	34	35	36	37	38	39	40
Beta cell apopt	-2	.	-7	30	1	.	-1	-1
UCH37 inh	4.5	1.0	9.3	1.4	-10	4.3	-3.9	5.7
Ecoli rRNA inh	.	-7	.	.	-8	-7	20	.
Ecoli rRNA inh OD600	.	-4	.	.	-2	-25	-4	.
Ecoli rRNA inh RFP	.	0.2	.	.	2.4	-1.2	1.2	.
FGF22 binding	.	i	.	.	i	.	i	i
E coli growth	0.74	0.71	0.66	0.7	0.67	0.72	0.7	0.65
AF4-AF9 inh	.	-5.0	.	.	3.1	.	-2.8	-0.1
A1 inh	0.3	.	0.4	0.3	1.3	-0.3	-0.2	-0.4
T cruzi inh	-23	5	-23	27	20	-13	-5	-4

#41 COc1cc(NC(=O)c2cc(-c3ccccc3)nc3c2cnn3C(C)C)cc(OC)c1OC
#42 Cc1ccc(S(=O)(=O)NCCC(=O)NCCN2CCCCCC2)cc1
#43 Cc1ccc(NC(=O)C2CCC(N3C(=O)C4CCCCC4C3=O)CC2)cc1 (centres undefined)
#44 COc1ccc(OC)c(S(=O)(=O)N2CCCC(C)C2)c1 (centres undefined)
#45 Cc1ccc(C)c(C(=O)CSc2n[nH]c(-c3ccncc3)n2)c1
entry no.	41	42	43	44	45
Beta cell apopt	26	6	-5	-7	-2
UCH37 inh	2.8	1.4	0.5	2.9	1.0
Ecoli rRNA inh	.	.	-3	.	.
Ecoli rRNA inh OD600	.	.	-5	.	.
Ecoli rRNA inh RFP	.	.	-1.1	.	.
FGF22 binding	.	.	i	.	.
E coli growth	0.7	0.64	0.71	0.65	0.65
AF4-AF9 inh	.	.	-3.7	.	.
A1 inh	-0.7	0.6	-0.3	0.2	-0.2
T cruzi inh	.	-3	-1	1	12

The list is partial (hit frequency here may not be typical).
